# gsp antag: gsp mutant antagonism; gsp-mutant cells, cAMP HTRF, 30 min; control for the full effect not named in the record; Potency, µM (series often up to 76.9 µM), without a hit: at the top dose activity change, negative = inhibition, hits mostly inhibitors; hit rate 0.4% among 340,000; AID 624288; active = falling curve of any shape with a large fitted effect; inconclusive = falling curve, mostly with a smaller effect; inactive = flat or rising curve; cell line not stated here;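 further: intracellular cAMP measured with PDE inhibitor Ro 20-1724 present during compound exposure; potency means the concentration at half of the fitted maximal effect; on the % scale 0 is the no-effect control and ±100 the full control effect; nearly all actives have a fitted effect of over 65% in size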
#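 HTRF cAMP measurement after 30 min RT detection following 30 min, 37C compound treatment alongside […] (added as 300 uM solution) in G418-selected cells seeded at 2000/well and grown 16–24 h.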
# gsp agonist: agonists of gsp mutant (McCune-Albright syndrome) | Potency, µM (series often up to 76.9 µM), inactives show top-dose activation (cAMP increase), usual class: activators | hit rate 0.13% among 340,000 | gsp mutant cells, cAMP HTRF, 30 min; control for the full effect not named in the record | AID 624287; active = well fitted activation curve with a large enough effect; inconclusive = small, poorly fitted or top-dose-only effect, or another doubt; inactive = no such curve, though single readings can be large or run the other way; cell line not stated here;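 further: phosphodiesterase inhibitor Ro 20-1724 added with compounds to block cAMP breakdown; potency means the concentration at half of the fitted maximal effect; nearly all actives have a fitted effect of over 60% in size; about a fifth of the inactives were tested at one dose only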
#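 Cells in DMEM/10% FBS with G418 were pretreated with compounds in DMSO plus […] (300 uM stock) for 30 min at 37C. cAMP was measured by HTRF (cAMP-d2 plus anti-cAMP antibody-K) after 30 min at room temperature.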
# TRPML1 agonist: agonists of human TRPML1 channel; activation, % (test concentration not listed); Q9GZU1; hit rate 0.12% among 410,000; AID 624414; TRPML1-expressing cells, Ca2+ dye fluorescence, FDSS; host cell line not named in the record; reference of the full effect not given here; in the data active = activation above about 50%; inconclusive = about 30% to 50%; inactive = below about 30%; further: 0% is about no effect; the text of the record puts the active cut at 80%
# Target sequence (Q9GZU1 whole entry, looked up): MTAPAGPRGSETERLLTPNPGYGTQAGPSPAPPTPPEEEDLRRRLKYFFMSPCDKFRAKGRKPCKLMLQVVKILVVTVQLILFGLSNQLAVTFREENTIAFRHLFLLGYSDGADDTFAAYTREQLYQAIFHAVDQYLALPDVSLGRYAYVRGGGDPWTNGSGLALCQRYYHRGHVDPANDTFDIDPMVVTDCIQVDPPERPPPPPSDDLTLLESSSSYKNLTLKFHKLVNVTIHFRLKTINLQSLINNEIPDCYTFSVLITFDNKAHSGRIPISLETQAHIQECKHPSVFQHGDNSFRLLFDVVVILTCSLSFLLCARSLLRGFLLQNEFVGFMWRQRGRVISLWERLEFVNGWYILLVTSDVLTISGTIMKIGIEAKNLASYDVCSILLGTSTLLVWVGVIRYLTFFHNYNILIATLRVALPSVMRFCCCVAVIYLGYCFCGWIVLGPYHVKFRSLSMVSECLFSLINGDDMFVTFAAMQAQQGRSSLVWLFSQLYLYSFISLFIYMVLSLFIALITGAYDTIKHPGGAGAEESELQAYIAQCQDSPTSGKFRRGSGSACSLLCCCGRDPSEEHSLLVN
#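 Tet-induced TRPML1-DL cells, 1,500 per well, cultured overnight, were loaded with a no-wash Ca2+ dye for 45–90 min. Calcium fluorescence was recorded on the FDSS for 110 s after compound addition, before the EC80 agonist (4 uM 54-4) was added.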
# TRPML1 inh: inhibitors of human TRPML1 channel; Q9GZU1; TRPML1-inducible cells, Ca2+ dye fluorescence, FDSS; active compounds read low; inhibition of EC80 agonist-evoked calcium signal; activity change, negative = inhibition, % (test concentration not listed); hit rate 0.02% among 390,000; in the data active means activity change below about -50%; inconclusive means about -30% to -50%; inactive means above about -30%;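 further: stimulus is agonist 54-4 at its EC80 concentration; on the % scale 0 is the no-effect control and ±100 the full control effect; compound concentration not given in the record; the text of the record puts the active cut at -80%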
#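 Tet-induced TRPML1-DL cells loaded with Ca8 no-wash calcium dye were read kinetically on FDSS. Compound addition was followed by EC80 agonist 54-4 (4 uM final); inhibition was read over 110 s.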
# ClpP mod: qHTS Assay for Activators of ClpP; Potency, µM (doses to about 57.5 µM), for the others: at the highest dose activity change, negative = active; purified B. subtilis ClpP, FRET peptide cleavage, 20 min; ATP-dependent Clp protease proteolytic subunit (Bacillus subtilis (strain 168)), P80244; hit rate 1.9% among 340,000; AID 651965, 2013; active = well fitted falling curve with a large enough effect; inconclusive = small, poorly fitted or top-dose-only effect; inactive = no such curve, though single readings can be large or run the other way; further: potency means the concentration at half of the fitted maximal effect; the source files actives as falling curves though it sought activators and does not explain the sign; nearly all actives have a fitted effect of over 65% in size; many hits overshoot -100%
# Target sequence (P80244 whole entry, looked up): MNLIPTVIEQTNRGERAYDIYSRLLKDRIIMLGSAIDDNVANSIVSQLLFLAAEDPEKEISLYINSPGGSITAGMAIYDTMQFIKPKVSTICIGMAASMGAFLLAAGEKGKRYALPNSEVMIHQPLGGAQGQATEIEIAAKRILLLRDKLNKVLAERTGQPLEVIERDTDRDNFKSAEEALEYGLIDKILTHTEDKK
#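 Buffer: 100 mM Tris/HCl pH8, 100 mM KCl, 0.05% low protease BSA, 2.5% glycerol, 0.01% Tween-20. ClpP 10 microg/mL final; 20 min RT; delta FRET normalized to ADEP and DMSO controls.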
# Menin MLL FP FL: displaces fluorescein MLL peptide from human menin; FP activity change, % at 61.4 µM; 290,000 tested, under 10 active; AID 1766; Fluorescence polarization, fluorescein-MLL peptide displacement from menin; inconclusive = falling polarisation curve, or a change in total fluorescence; inactive = total fluorescence flat and polarisation flat or rising; no compound was filed as active; the % refers to the polarisation; negative = inhibition;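 further: % of control where 0% means no effect; inhibitors lower the polarisation; unlabelled MLL peptide was the positive control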
# An asterisk follows results filed as active; ? = inconclusive; / = not tested or not shown; [ ] = another dose, or the depositor's remark.
1. Cc1cccc(OCCCC(=O)O)c1
2. C=CC[C@@H](CC(=O)N[C@@H](CO)Cc1ccccc1)C(=O)N[C@H](COC(=O)[C@@H](CC=C)Cc1ccc(F)cc1)C(C)(C)C
3. O=C(NCCc1ccccc1)C1(c2cccs2)CCOCC1
4. N#Cc1cccc(NC(=O)CSc2ccc3c4c(cccc24)C(=O)c2ccccc2-3)c1
5. Cc1c(Cl)cc(-n2cnnn2)cc1[N+](=O)[O-]
6. CCCN(CCC)Cc1c(C(=O)N/N=C/c2c[nH]c3ccccc23)nnn1-c1nonc1N
7. CC(C)(C)OC(=O)NCCc1nnc(SCc2ccc(Cl)cc2Cl)o1
8. C(=N\Nc1nc2ccccc2s1)/c1ccco1

compound no.	1	2	3	4	5	6	7	8
TRPML1 inh	17	7	-7	-15	-7	-14	34	-15
Menin MLL FP FL	3.1	/	/	5.1	3.8	6.4	-0.8	3.3
ClpP mod	0.6%	-2.1%	1.3%	-2.3%	0.1%	/	-0.2%	2.7%
gsp agonist	-30%[inhibitor]	-2%	/	?	-12%	-28%	0%	1%
gsp antag	3%	-5%	/	8%	-6%	?	-12%	-19%
TRPML1 agonist	0.5	1.6	-0.7	80*	3.7	0.9	1.1	-0.2

9. Cc1cccc2sc(N(Cc3cccnc3)C(=O)c3cccs3)nc12
10. CC(C)(O)C#Cc1ccc(C(=O)N2CCN(C(=O)c3ccco3)CC2)cc1
11. CCOC(=O)N1CCC(Nc2c(NCCCN3CCN(c4ccc(OC)cc4)CC3)c(=O)c2=O)CC1
12. CCc1nc(OCC(=O)c2ccccc2)c(C#N)c2c1COC(C)(C)C2
13. COc1ccc(-c2cc(N)n(S(=O)(=O)Cc3ccccc3)n2)c(OC)c1
14. Cc1ccc(C(=O)Nc2ccc(N3CCOCC3)cc2)cc1
15. O=C(CSc1ccc(-c2cccnc2)nn1)Nc1ccc(Br)cc1
16. CC(c1ccccc1)n1c(-c2ccccc2F)n[nH]c1=S (stereo not drawn)

compound no.	9	10	11	12	13	14	15	16
TRPML1 inh	13	2	6	11	12	-3	10	26
Menin MLL FP FL	/	-1.5	3.4	4.5	4.0	-0.6	-4.8	-5.8
ClpP mod	-2.5%	-1.3%	-1.7%	1.8%	0.0%	1.3%	-0.8%	/
gsp agonist	/	2%	-2%	-24%	-6%	-46%[inhibitor]	2%	-41%[inhibitor]
gsp antag	/	0%	0%	?	-11%	-10%	-9%	6%
TRPML1 agonist	1.0	-0.3	-0.6	3.6	-1.3	-0.3	-0.1	0.7

17. CCOc1ccc(N(CC(=O)Nc2ccccc2F)S(=O)(=O)c2c(C)[nH]c(=O)[nH]c2=O)cc1
18. O=C(C1CCC1)N1CCc2cc(S(=O)(=O)NC3CCCC3)ccc21
19. COc1cc2[nH]c(=O)n(CCCCCC(=O)NCCCN3CCCC3=O)c(=O)c2cc1OC
20. COCCCn1c(=O)/c(=C\c2ccccc2OC(C)C)s/c1=C(/C#N)C(=O)Nc1ccc(C(=O)O)cc1
21. C=CCN1C=C(C(=O)c2ccccc2)C(=O)CC1
22. CC1(C)C2CC=C(/C=N/NC(=O)c3ccccc3Br)C1C2 (stereo not drawn)
23. COc1ccc(Cl)cc1-c1nc(-c2ccc(NC(=O)c3ccncc3)cc2)no1
24. CCOc1ccc(CCNC(=O)CS(=O)(=O)Cc2nc(-c3ccccc3F)oc2C)cc1

compound no.	17	18	19	20	21	22	23	24
TRPML1 inh	-1	-18	2	-7	-6	-4	21	1
Menin MLL FP FL	/	3.9	4.0	?	/	-0.5	/	/
ClpP mod	-2.1%	-1.9%	28µM*	/	-2.2%	-2.8%	0.7%	4.2%
gsp agonist	-69%[inhibitor]	-7%	?	1%[15.4 µM]	/	-56%[inhibitor]	-39%[inhibitor]	-11%
gsp antag	9%	-24%	13%	?	3%	-3%	14%	-23%
TRPML1 agonist	-0.7	1.1	-0.6	-0.4	-0.6	0.9	-0.5	-0.3

25. Cc1cccc(NC(=O)COc2nsnc2N2CCOCC2)c1
26. CC[C@]12c3[nH]c4ccccc4c3CCN1C(=O)C(CC(=O)NC/C=C(\C)CCC=C(C)C)C[C@@H]2C(=O)N1CCN(C(=O)c2ccco2)CC1 (stereo partly drawn)
27. COc1cc(=O)[nH]c(SCc2c(F)c(F)c(F)c(F)c2F)n1
28. O=C(c1ccc2c(c1)OCO2)C1CCCN(Cc2c(F)ccc(F)c2F)C1 (stereo not drawn)
29. CCOC(=O)C1CCN(c2nc(-c3ccccc3)nc3c2oc2ccccc23)CC1
30. CCc1ccc(-c2cc(C(F)(F)F)n3nc(C(=O)Nc4cnn(Cc5ccccc5C)c4)cc3n2)s1
31. Cc1ccc(CNC(=O)C(CCC(N)=O)NC(=O)OCc2ccccc2)cc1 (stereo not drawn)
32. O=C(COc1ccc(Cl)cc1)NCc1nnc(SCC(=O)NCC2CCCO2)o1 (stereo not drawn)

compound no.	25	26	27	28	29	30	31	32
TRPML1 inh	7	-8	4	54	-9	-5	?	6
Menin MLL FP FL	3.1	/	2.1	/	-0.6	4.9	7.6	-0.9
ClpP mod	0.7%	-1.0%	-0.4%	-5.3%	32µM*	-7.1%	1.8%	1.2%
gsp agonist	0%	/	-29%	11%	7%	-13%	9%	13%
gsp antag	-1%	-29%	-8%	-11%	-24%	7%	6%	-3%
TRPML1 agonist	0.3	-0.2	0.6	1.0	-0.7	0.9	0.4	1.0

33. Cc1cc(=O)c(C(=O)O)nn1-c1ccccc1
34. CCN(CC(=O)NC(C)C)C(=O)CCNC(=O)c1ccc(Cl)cc1
35. CNC(=O)C(=O)NCCC1CCCCN1S(=O)(=O)c1cccs1 (stereo not drawn)
36. CCO[C@H]1OC(C(=O)NCc2nc3ccccc3[nH]2)=C[C@@H](C2CC2)[C@@H]1CCCO
37. O=C(Cc1ccccc1F)NCC(=O)Nc1ccccc1Br
38. Cc1cccc(NC(=O)CN2CCC(C(=O)c3ccc4c(c3)OCCO4)CC2)c1
39. CC(=O)c1cc(NC(=O)c2ccccc2)c(=O)oc1/C=C/N(C)C
40. COc1ccccc1NC(=O)CSc1nnc(COc2ccc(Cl)cc2)n1Cc1ccco1

compound no.	33	34	35	36	37	38	39	40
TRPML1 inh	-5	2	0	11	-8	-2	10	9
Menin MLL FP FL	-0.8	1.0	/	-10	/	-1.9	?	6.9
ClpP mod	0.7%	1.0%	-4.3%	3.0%	/	/	0.5%	-4.6%
gsp agonist	6%[15.4 µM]	10%	-4%[15.4 µM]	32%	-25%[15.4 µM]	-1%	?	28%
gsp antag	-8%	10%	5%	12%	-6%	-17%	-29%	-23%
TRPML1 agonist	-0.6	-0.6	0.1	-0.4	0.1	2.0	17	3.6

# Quoted at random: 2 compounds from above
33. Cc1cc(=O)c(C(=O)O)nn1-c1ccccc1
35. CNC(=O)C(=O)NCCC1CCCCN1S(=O)(=O)c1cccs1 (stereo not drawn)

compound no.	33	35
TRPML1 inh	-5	0
Menin MLL FP FL	-0.8	/
ClpP mod	0.7%	-4.3%
gsp agonist	6%[15.4 µM]	-4%[15.4 µM]
gsp antag	-8%	5%
TRPML1 agonist	-0.6	0.1

# (list continues)
41. COC(=O)c1ccc(NC(=O)CC2C(=O)N(c3cccc(C)c3)C(=O)N2C2CCCC2)cc1 (stereo not drawn)
42. CC(=O)c1c(C)nc(-c2ccc(Cl)cc2)nc1N=CN(C)C
43. CC1CCCC(NC(=O)CN2C(=O)c3cccnc3Oc3ccc(Cl)cc32)C1C (stereo not drawn)
44. COc1ccc(/C=N/Nc2c(Cl)cc(Cl)cc2Cl)cc1CN1CCOCC1
45. COc1ccc(-c2noc(CSc3nc4ccccc4c(=O)n3-c3ccc(C)cc3)n2)cc1
46. CC(C)CN(CC(C)C)S(=O)(=O)N1CCC(C(=O)NC2CCCCCCC2)CC1
47. COc1ccc(CN2CCN(Cc3cccc(F)c3)CC2)cc1OC
48. O=S(=O)(c1ccccc1)c1nc(-c2cccs2)oc1N1CCCCC1

compound no.	41	42	43	44	45	46	47	48
TRPML1 inh	9	1	-14	-10	15	-11	10	24
Menin MLL FP FL	/	-6.8	-1.3	3.9	1.8	3.0	-0.1	/
ClpP mod	2.2%	-10%	1.1%	-3.5%	-2.6%	-1.6%	-2.7%	-2.7%
gsp agonist	/	3%	?	19%	-18%	2%	1%[15.4 µM]	/
gsp antag	/	4%	-11%	9%	4%	1%	10%	/
TRPML1 agonist	-0.1	-1.7	0.7	0.9	0.3	5.1	-0.4	2.7

# Full records from above.
# CC1CCCC(NC(=O)CN2C(=O)c3cccnc3Oc3ccc(Cl)cc32)C1C (stereo not drawn) across the screens: TRPML1 inh: -14; Menin MLL FP FL: -1.3; ClpP mod: 1.1%; gsp agonist: ?; gsp antag: -11%; TRPML1 agonist: 0.7
# COC(=O)c1ccc(NC(=O)CC2C(=O)N(c3cccc(C)c3)C(=O)N2C2CCCC2)cc1 (stereo not drawn) across the screens: TRPML1 inh: 9; Menin MLL FP FL: /; ClpP mod: 2.2%; gsp agonist: /; gsp antag: /; TRPML1 agonist: -0.1

# Compounds shown so far containing two or more sulfur atoms, in the order listed:
9. Cc1cccc2sc(N(Cc3cccnc3)C(=O)c3cccs3)nc12
35. CNC(=O)C(=O)NCCC1CCCCN1S(=O)(=O)c1cccs1 (stereo not drawn)
48. O=S(=O)(c1ccccc1)c1nc(-c2cccs2)oc1N1CCCCC1

compound no.	9	35	48
TRPML1 inh	13	0	24
Menin MLL FP FL	/	/	/
ClpP mod	-2.5%	-4.3%	-2.7%
gsp agonist	/	-4%[15.4 µM]	/
gsp antag	/	5%	/
TRPML1 agonist	1.0	0.1	2.7

# Other results follow.
49. O=C(Nc1ccc(N2CCN(C(=O)c3ccco3)CC2)c(Cl)c1)c1cc2ccccc2o1
50. CC(C)N(O)C(=O)NC(C)(C)C
51. Cc1c(Cl)cccc1NC(=O)CCN1C(=O)NC(C)(C)C1=O
52. Oc1ccccc1-c1nc(/C=C/c2ccccc2Cl)no1
53. CCC1(C)CC(=O)N(c2ccc(F)c(Cl)c2)C(=O)C1
54. CC1=C(C(=O)OCC2CCCO2)C(c2ccc(O)cc2)NC(=O)N1 (stereo not drawn)
55. COc1ccc(N(CC(=O)Nc2ccccc2OC)S(=O)(=O)c2ccc(OC)c(OC)c2)cc1

compound no.	49	50	51	52	53	54	55
TRPML1 inh	11	-5	-9	0	3	-5	29
Menin MLL FP FL	3.5	3.6	/	/	1.5	-0.8	1.4
ClpP mod	?	1.0%	/	0.0%	1.2%	-0.7%	-0.9%
gsp agonist	-9%	-14%	-7%[15.4 µM]	/	-4%	-29%	6%
gsp antag	?	7%	2%	/	5%	5%	-24%
TRPML1 agonist	3.0	-0.3	-0.4	1.1	2.3	0.4	2.2

# Source: PubChem BioAssay (National Center for Advancing Translational Sciences (NCATS))

# This is a random part of the collection. Share with any hit: about 2.1%.
